# HIV Env fusion: inhibitors of HIV-1 Env-driven cell-cell fusion, primary screen, HeLa-JRFL effector, CEM21 target cells, luciferase | inhibition, % at 12.3 µM | 1.1% of 360,000 active | AID 651610, 2012;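 active means mean replicate inhibition score of at least 50 and every replicate individually at or above 50; inconclusive means only one of the two criteria met; inactive means mean below 50 and not all replicates reaching 50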;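 further: 0% = plate neutral controls and 100% = maraviroc near 300 nM; one replicate is shown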
# MT1-MMP act inh: blockers of MT1-MMP proenzyme processing, primary screen, HT1080 RFP-PRO-GFP cells, GFP/RFP fluorescence; Matrix metalloproteinase-14 (Homo sapiens), P50281; GFP/RFP ratio fluorescence, overnight; percent of plate control window, DMSO zero; GFP/RFP ratio change, % at 20 µM; 0.061% of 360,000 active; AID 651647, 2012;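 active means GFP/RFP ratio change of at least 30% with cell ATP level not reduced by more than half and red fluorescence within 50% of control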; further: strong numbers were not always called active
#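 Compound: 20 µM single dose, 1% DMSO / System: HT1080 RFP-PRO-GFP cells / Controls: DMSO and RFP-L50D-GFP cell wells / Read-out basis: GFP/RFP fluorescence ratio / Schedule: overnight compound exposure at 37 °C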
# Rce1 inh: yeast Rce1p protease inhibitors, primary screen, biochemical, fluorescence, cell-free homogeneous; calls only; CAAX prenyl protease 2 (Saccharomyces cerevisiae (strain ATCC 204508 / S288c)), Q03530; yeast membranes, quenched prenylated peptide cleavage fluorescence; 0.27% of 290,000 active;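 active means fall in fluorescence gain of 50% or more versus controls, with final raw signal at or below 3038400; inconclusive means same 50% fall but final raw signal above 3038400; inactive means fall in fluorescence gain under 50%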;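 further: plate controls were neutral control wells for no effect and wells lacking membranes for full effect; tested at 10 µM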
# Target sequence (Q03530 whole entry, looked up): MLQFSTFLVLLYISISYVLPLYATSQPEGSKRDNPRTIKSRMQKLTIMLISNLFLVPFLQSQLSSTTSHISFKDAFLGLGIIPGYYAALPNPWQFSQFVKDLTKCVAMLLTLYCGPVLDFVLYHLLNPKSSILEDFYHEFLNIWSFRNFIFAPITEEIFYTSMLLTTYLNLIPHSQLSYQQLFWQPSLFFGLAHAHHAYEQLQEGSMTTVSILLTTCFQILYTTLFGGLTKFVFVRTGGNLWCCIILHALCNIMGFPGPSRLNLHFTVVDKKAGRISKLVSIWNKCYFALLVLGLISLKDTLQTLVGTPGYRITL
# CSC inhib: cancer stem cell viability inhibitors, primary screen, luminescence; cancer stem cell-like cells viability; inhibition, % at 7.5 µM; 1.1% of 300,000 active;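 active means mean at 75% or more and at least half the replicates too; inconclusive means mean and replicates disagree; tested in HMLE shEcad cells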;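 further: 0% = median of negative and 100% = median of positive control wells; the first replicate is given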
# UUG fidelity: modulators of yeast start codon fidelity, primary screen, whole organism, S. cerevisiae, single point, plate reader. S. cerevisiae UUG-firefly luciferase reporter, luminescence/redox ratio. activity score, % at 18.7 µM. 0.13% of 350,000 active;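 active means replicate mean at a twofold rise or more, about +100% in these data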;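 further: firefly luciferase made from a UUG start codon reports start codon fidelity; reporter light over untreated wells divided by growth signal over untreated wells; some hits fall short of that in this replicate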
# PABP FP inh: PABP poly(A) RNA binding inhibitors, primary screen, biochemical, fluorescence polarization, uHTS. Polyadenylate-binding protein 1 (Homo sapiens), P11940. inhibition, % at 35 µM. 1% of 290,000 active. AID 2014, 2009;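 active means 50% or more with normal probe brightness, or confirmed in later tests; inconclusive means above 50% with abnormal brightness, or retests that disagree; inactive means below 50% or failed in later tests; about a fifth of its hits are not listed in these tables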;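 further: calls also rest on retests at 20 µM and on dose response follow-up; controls were probe without protein and protein plus probe with vehicle; some compounds called inactive have numbers as strong as hits; many hits fall short of the cut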
# eIF4H FP inh: human eIF4H binding inhibitors, primary screen, translation initiation inhibitor project, biochemical, uHTS, fluorescence polarization; Eukaryotic translation initiation factor 4H (Homo sapiens), Q15056; eIF4H fluorescence polarization binding assay; inhibition, % at 35 µM; 0.94% of 290,000 active; AID 2012, 2009;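 active means 50% or more with normal probe brightness, or confirmed in later tests; inconclusive means above 50% with abnormal brightness, or retests that disagree; inactive means below 50% or failed in later tests; about a fifth of its hits are not listed in these tables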;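 further: calls also rest on retests at 20 µM and on dose response follow-up; 0% = protein and probe with vehicle and 100% = probe without protein; strong numbers were not always called active; many hits fall short of the cut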
# eIF4H FP inh retest: recorded beside eIF4H FP inh, whose call it bears; inhibition, %; compound at 20 µM; confirmation average;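 mean of two retest wells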
# PABP FP inh retest: recorded beside PABP FP inh, whose call it bears; inhibition, %; compound at 20 µM; confirmation repeats;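 mean of two retest wells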
# MT1-MMP act inh RFP: second read-out of MT1-MMP act inh, no call of its own (marks repeat the call); RFP signal change, %; measured here: RFP expression control read;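 0 = vehicle wells; hits needed this value within 50% of zero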
# Numbers without * were called inactive; i = inactive; ? = inconclusive; nt = no result given.
SMILES,HIV Env fusion,MT1-MMP act inh,MT1-MMP act inh RFP,Rce1 inh,CSC inhib,UUG fidelity,PABP FP inh,eIF4H FP inh,others
Cc1c(Cl)cccc1NC(=O)Nc1ccc(C(N)=O)cc1,-3,4,4,i,nt,nt,-7,-7,
CN(Cc1cccs1)C(=O)CN1C(=O)c2ccccc2S1(=O)=O,nt,-4,0,nt,-8,-9,nt,nt,
CN(C(=O)CC1C(=O)NCCN1Cc1ccoc1)C1CCOCC1 (configuration not stated),-6,-3,2,i,-1,nt,-10,-3,
CC(=O)Nc1ccccc1NC(=O)C/C(C)=N/NC(=O)C1CCCCC1,-10,2,4,i,nt,-4,4,2,
CC1CCCC(C)N1C(=O)COC(=O)CNC(=O)c1ccccc1 (configuration not stated),2,4,6,nt,nt,-4,nt,nt,
CCOC(=O)c1c(C)[nH]c(C(=O)OCc2ccc([N+](=O)[O-])cc2)c1C,16,-2,0,i,3,-13,6,-2,
CC(C)CC(=O)Nc1ccnn1C1CCN(C(=O)c2ccc(Cl)cc2F)CC1,12,2,-1,i,15,9,-2,-4,
CCCNC(=O)c1ccc2c(c1)ncn2-c1cc(C)cc(C)c1,0,1,-5,i,-7,nt,-3,-2,
OC1COC(OCc2ccccc2)C(O)C1O (configuration not stated),8,0,1,i,-16,-10,-7,3,
CN(Cc1ccccc1)C(=O)c1[nH]cnc1C(=O)NCc1ccc(CNC(=O)OC(C)(C)C)cc1,17,-1,-25,nt,14,-9,nt,nt,
O=C(Cc1ccc(Br)cc1)N1CCN(c2ccccc2O)CC1,1,-3,-5,i,2,7,0,3,
CN(C(=O)c1ccc(OC2CCN(CCc3ccccc3)CC2)cc1)C1CCOC1 (configuration not stated),1,-5,-3,i,-11,10,6,3,
CCOCCN(C(=O)COC)c1cccc(OC)c1,nt,3,4,i,4,-5,-5,4,
O=C1Nc2c(Cl)cccc2C1=O,6,2,10,nt,nt,-17,nt,nt,
CCOC(=O)C1CN(S(=O)(=O)c2cc(OC)ccc2OC)C1,3,3,1,i,-15,-10,-2,-18,
COc1ccc(S(=O)(=O)N2CC(C)N(C(=O)N3CCOCC3)C2)cc1 (configuration not stated),-11,-2,0,i,12,-17,10,-4,
OC(CNCc1ccco1)COc1ccccc1 (configuration not stated),nt,0,0,i,nt,nt,6,2,
CCCCCC(O)C=CC1C(O)CC(O)C1CC=CCCCC(=O)O (configuration not stated),-12,3,5,nt,nt,1,nt,nt,
COc1cc(S(=O)(=O)NC2CCSc3ccccc32)ccc1NC(C)=O (configuration not stated),5,1,1,i,0,-1,11,-3,
Cc1ccc(NC(=S)NNC(=S)NCc2ccccc2)cc1,7,-1,-2,i,9,-23,6,6,

# Continued; the last 2 above are carried over.
SMILES,HIV Env fusion,MT1-MMP act inh,MT1-MMP act inh RFP,Rce1 inh,CSC inhib,UUG fidelity,PABP FP inh,eIF4H FP inh,others
COc1cc(S(=O)(=O)NC2CCSc3ccccc32)ccc1NC(C)=O (configuration not stated),5,1,1,i,0,-1,11,-3,
Cc1ccc(NC(=S)NNC(=S)NCc2ccccc2)cc1,7,-1,-2,i,9,-23,6,6,
Cn1nc(C(=O)OCc2ccc(F)cc2)c2ccccc2c1=O,-4,4,-12,i,nt,-8,-3,3,
O=S(=O)(Cc1ccccc1)NCC1CCCN(Cc2ccc(F)c(F)c2)C1 (configuration not stated),24,0,3,i,2,-3,4,3,
CCOc1cc(-c2nc(-c3ccc(C)nc3OCC)no2)cc(OCC)c1OCC,23,2,1,i,nt,-3,-6,-15,
O=C(NCc1ccc(F)cc1)C1C2C=CC3(CN(Cc4cccnc4)C(=O)C13)O2 (configuration not stated),-55,2,2,i,-8,-13,3,5,
O=c1[nH]c2ccc(S(=O)(=O)NCc3ccccn3)cc2s1,5,1,3,i,-11,-18,8,-4,
C=C1SC(Nc2c(C)cccc2C)=NC12CCCCC2,11,-17,-14,i,52,-7,10,-13,
CCN1CCN(C(=O)Nc2cccc3ccccc23)CC1,8,2,0,i,-4,-5,23,33,
COc1cc(NC(=O)CSc2nnc3ccccn23)cc(OC)c1OC,-8,-1,1,nt,nt,-17,nt,nt,
CCCC(=O)c1c[nH]c(C(=O)NCc2ccco2)c1,nt,5,2,i,-10,-9,2,-9,
Cc1csc(N(C(=O)c2ccc(S(=O)(=O)N(C)C)cc2)c2ccccc2)n1,nt,-3,0,i,8,-10,5,4,
CCNC(=O)C1CCCN(C(=O)c2cccs2)CC1 (configuration not stated),-23,0,4,nt,nt,-15,nt,nt,
O=C(COc1ccc(Cl)cc1)NCCCn1ccnc1,nt,3,1,i,-3,-16,-4,9,
c1ccc2c(CNn3cnnc3)cccc2c1,nt,3,5,i,-13,-17,-6,-16,
Cc1[nH]nc2ncc(C(=O)c3ccccc3O)cc12,64*,-7,-13,i,-5,-17,6,-3,
CCN(C(=O)c1c(C)cc(=O)oc1C)c1ccc2c(c1)OCO2,-81,0,3,i,-8,-18,-6,3,
COc1cccc(CC(=O)Nc2ccc(S(=O)(=O)N3CCOCC3)cc2)c1,1,0,2,i,-2,-6,nt,nt,
O=C(Nc1ccccc1)N1CCN(c2cccc(C(F)(F)F)c2)CC1,nt,1,-7,i,nt,0,-17,-12,
CCn1c(=O)c(C(=O)NCc2ccc(F)cc2)c(O)c2ccccc21,3,0,-2,i,20,-11,5,9,
O=C(Nc1ccc(-c2cn3ccccc3n2)cc1)c1ccco1,?,5,0,i,-12,-22,6,-2,
O=CN1CCN(C(=O)c2cccc3c2-c2ccccc2C3=O)CC1,5,-3,-3,i,3,-10,-2,-3,

# Part of the list above in order of molar mass, smallest number first:
SMILES,HIV Env fusion,MT1-MMP act inh,MT1-MMP act inh RFP,Rce1 inh,CSC inhib,UUG fidelity,PABP FP inh,eIF4H FP inh,others
CCN1CCN(C(=O)Nc2cccc3ccccc23)CC1,8,2,0,i,-4,-5,23,33,
CN(C(=O)CC1C(=O)NCCN1Cc1ccoc1)C1CCOCC1 (configuration not stated),-6,-3,2,i,-1,nt,-10,-3,
COc1cc(S(=O)(=O)NC2CCSc3ccccc32)ccc1NC(C)=O (configuration not stated),5,1,1,i,0,-1,11,-3,
Cc1csc(N(C(=O)c2ccc(S(=O)(=O)N(C)C)cc2)c2ccccc2)n1,nt,-3,0,i,8,-10,5,4,

# Returning to the listing, starting four compounds before the break.
SMILES,HIV Env fusion,MT1-MMP act inh,MT1-MMP act inh RFP,Rce1 inh,CSC inhib,UUG fidelity,PABP FP inh,eIF4H FP inh,others
O=C(Nc1ccccc1)N1CCN(c2cccc(C(F)(F)F)c2)CC1,nt,1,-7,i,nt,0,-17,-12,
CCn1c(=O)c(C(=O)NCc2ccc(F)cc2)c(O)c2ccccc21,3,0,-2,i,20,-11,5,9,
O=C(Nc1ccc(-c2cn3ccccc3n2)cc1)c1ccco1,?,5,0,i,-12,-22,6,-2,
O=CN1CCN(C(=O)c2cccc3c2-c2ccccc2C3=O)CC1,5,-3,-3,i,3,-10,-2,-3,
O=C(COc1ccc([N+](=O)[O-])cc1)Nc1cc(C(=O)O)cc(C(=O)O)c1,-8,2,2,i,0,-15,2,10,
COC(=O)c1ccc(NC(=O)CSC2=NC(=O)C(c3ccccc3)C(=O)N2)cc1 (configuration not stated),21,-2,8,i,-9,-11,8,2,
COc1cccc(C(=O)Nc2nnc(S(=O)(=O)N(C)Cc3ccccc3)s2)c1,-3,1,-5,i,41,-1,nt,nt,
CCc1ccc(CCC(=O)Nc2nnc(C)s2)o1,-16,3,-4,i,-17,nt,2,0,
FC(F)(F)COc1ccc(-n2ccnc2)nn1,2,-2,1,i,-16,nt,22,-4,
O=C1Nc2ccccc2/C1=C/c1cnc(-c2ccccc2)[nH]1,-65,-138,-1,i,30,-3,?,?,
O=C(NCc1ccco1)C(c1ccccc1)N(C(=O)Cc1cccs1)c1cccnc1 (configuration not stated),-16,12,9,i,-5,nt,-14,2,
NC(=O)c1nsc(C(=O)N(CC(=O)NCc2ccc(F)cc2)Cc2ccco2)c1N,nt,0,-1,i,-11,2,11,-1,
Cc1ccc(C(=O)N2CCN(c3ccc(NC(=S)NC(=O)c4cccs4)cc3)CC2)cc1,34,-8,-21,i,-1,-17,-1,-10,
O=c1c2cccnc2[nH]c(=S)n1CCCN1CCN(c2ccccc2F)CC1,-48,6,11,i,-2,-5,-11,-13,
Cc1c(Cl)c(=O)oc2cc(OCC(=O)NCc3cccs3)ccc12,-5,-2,-2,nt,-5,nt,9,-3,
CCOC(=O)c1sc(NC(=O)CS(=O)(=O)c2ccc(C)cc2)nc1C,6,0,-1,i,nt,-15,6,-11,
CCC(=O)Nc1ccc(NC(=O)Cc2ccccc2)cn1,-112,-3,8,i,-4,-3,12,5,
O=C(NCCc1ccco1)C(=O)NCC1OCCCN1S(=O)(=O)c1ccc(F)cc1 (configuration not stated),5,-1,1,i,1,4,12,6,
CCCCCOc1ccc(C(=O)NC(CCC)C(=O)O)cc1 (configuration not stated),nt,0,0,i,1,2,5,-3,
Cc1cc(Nc2cccc(F)c2)nc(-c2ccccc2O)n1,-26,6,-2,i,102*,-4,15,0,
NC(=O)/C(=C/c1ccco1)C(N)=S,-7,-11,4,i,-3,nt,46,55,eIF4H FP inh retest=0;PABP FP inh retest=-3
COc1cccc(/C=N/n2c(=S)n(C)c3cc(C)c(C)cc32)c1OC,-87,-2,4,i,-7,-17,-8,-8,
Cc1ccc(OCC(=O)c2cc(C)n(-c3ccccc3)c2C)c([N+](=O)[O-])n1,67*,5,-12,i,0,nt,-4,46,
N#CC(C(N)=O)=C1CCC2(CC1)OCCCCO2,nt,0,5,i,-6,-16,-7,-8,
O=C(O)CCCN=C1CCCc2ccccc2N1,-34,0,2,i,-10,-6,-8,3,
Cc1cc(OC(C)C(=O)NCc2cccnc2)c2c(C)cc(=O)oc2c1 (configuration not stated),8,1,0,i,-4,-15,0,-8,
COc1ccc(-c2nnc(SCC(=O)N(C)C3CCS(=O)(=O)C3)n2N)cc1OC (configuration not stated),11,2,4,i,0,nt,1,5,
